Source: PubChem (National Center for Advancing Translational Sciences (NCATS))
Rango complex inh: inhibitors of Rango-importin beta complex formation; Rango CFP/YFP FRET sensor + importin beta, 45 min; 340,000 tested, 0.031% active; Q14974; Potency, µM (series often up to 92.2 µM), without a hit: top-dose inhibition of complex formation; active = rising FRET ratio curve, often small or poorly fitted; inconclusive = mostly compound fluorescence or quenching in the first reads; inactive = flat curves in all reads;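 note: potency is the fitted concentration of half-maximal effect; 0% = DMSO wells and 100% = buffer wells lacking importin beta; nearly all actives have a fitted effect of over 15% in size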
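FRET biosensor (snurportin 1 IBB flanked by EYFP and cerulean), 50 nM, with compound 5 min, then 0.125 microM importin beta in PBS, 1 mM DTT, 0.02% Tween-20, 0.1% BSA. CFP/YFP ratio read after 45 min at room temperature; pre-read flags interference.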
GLA inh pH 4.5: alpha-galactosidase A (human) inhibition, pH 4.5 | activity change, negative = inhibition, % at 105 µM | P06280 | purified enzyme, 4-MU-alpha-Gal fluorescence, pH 4.5 | 230,000 tested, under 10 active; inconclusive = small, poorly fitted or top-dose-only inhibition, or a rising curve; inactive = flat fitted curve, though single readings scatter; no compound was filed as active;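 note: 0% = full activity with enzyme and -100% = basal without enzyme; dose as in the result columns while the protocol names 77 µM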
Target sequence (P06280 whole entry, looked up): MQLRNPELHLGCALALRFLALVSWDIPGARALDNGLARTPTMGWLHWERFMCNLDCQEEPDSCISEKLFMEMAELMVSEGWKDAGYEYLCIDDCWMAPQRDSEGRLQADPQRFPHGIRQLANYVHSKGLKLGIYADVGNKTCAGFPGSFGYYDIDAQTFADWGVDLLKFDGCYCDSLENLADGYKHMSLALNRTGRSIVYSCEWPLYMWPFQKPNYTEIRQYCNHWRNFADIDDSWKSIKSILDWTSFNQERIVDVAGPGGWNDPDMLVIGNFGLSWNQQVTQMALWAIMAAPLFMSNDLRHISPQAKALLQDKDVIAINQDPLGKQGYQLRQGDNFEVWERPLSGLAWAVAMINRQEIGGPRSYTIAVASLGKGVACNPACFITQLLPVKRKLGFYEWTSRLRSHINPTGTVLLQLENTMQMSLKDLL
Rango dissoc inh: prevents RanGTP from dissociating the Rango-importin beta complex. Biochemical FRET Rango-importin beta, RanGTP-induced dissociation. 340,000 tested, 0.071% active. Potency, µM (doses to about 46.1 µM), without a hit: at the top dose activity change, negative = inhibition; active means falling FRET ratio curve, often poorly fitted, with flat reads before Ran was added; inconclusive means other falling curves, or compound fluorescence or quenching; inactive means flat or rising ratio curve;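 note: potency is the fitted concentration of half-maximal effect; % of control where 0% means no effect; nearly all actives have a fitted effect of over 45% in size; -100% = wells without RanGTP and RCC1; the record marks most hits as doubtful in a second field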
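Recombinant Rango FRET biosensor (EYFP–snurportin 1 IBB–cerulean CFP10) at 0.1 uM premixed with 0.25 uM importin beta in PBS, 1 mM DTT, 0.02% Tween-20, 0.1% BSA. Compound added 5 min; RanGTP-RCC1 (0.6 uM Ran, 2 mM GTP, 0.2 uM RCC1) then triggers release, read at 45 min.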
miR-21 reporter: raises the signal of a miR-21 reporter; HeLa miR-21 FLuc reporter, luciferase, 48 h; Potency, µM (highest dose often 38.3 µM), inactives show at the highest dose reporter change, positive = more light; 340,000 tested, under 10 active; active = well fitted rising curve with a large enough effect; inconclusive = small, poorly fitted or top-dose-only effect; inactive = no such curve, though single readings can be large or run the other way;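 note: % of control where 0% means no effect; miR-21 action dims this reporter so a rising signal means less miR-21 action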
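HeLa miR-21-FLuc reporter line, endogenous miR-21; 2000 cells/well in DMEM/10% FBS; compound titration up to ~40uM final, 48 h, 37 degree Celsius; luciferase detection reagent, 15 min lysis, CCD luminescence.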
Starred values were filed as active, the others as inactive; ? = inconclusive; . = not tested or not shown; & = joins results of further samples; [ ] = dose if it differs, or a comment. Only part of the results is shown; count on the stated rates, not on these rows.

Start of the data: the first 3 compounds, ahead of the listing:
SMILES	Rango complex inh	GLA inh pH 4.5	Rango dissoc inh	miR-21 reporter
O=C(O)c1ccc2c(=O)n3c(nc2c1)/C(=C/c1ccc(OC(F)F)cc1OC(F)F)CC3	-0.3%	.	1.1%	1.9%
COc1ccc(C2=NN(C(=O)c3cccnc3)C(c3ccccc3)C2)cc1 (stereo not drawn)	9.4%	6.9	-12.2%	-9.7%
O=C(CCN1C(=O)/C(=C\c2cccs2)SC1=S)Nc1ccc(C(=O)O)cc1	?	.	3.9%	-0.4%

All compounds of this part, from the start:
SMILES	Rango complex inh	GLA inh pH 4.5	Rango dissoc inh	miR-21 reporter
O=C(O)c1ccc2c(=O)n3c(nc2c1)/C(=C/c1ccc(OC(F)F)cc1OC(F)F)CC3	-0.3%	.	1.1%	1.9%
COc1ccc(C2=NN(C(=O)c3cccnc3)C(c3ccccc3)C2)cc1 (stereo not drawn)	9.4%	6.9	-12.2%	-9.7%
O=C(CCN1C(=O)/C(=C\c2cccs2)SC1=S)Nc1ccc(C(=O)O)cc1	?	.	3.9%	-0.4%
C[C@@H](NC(=O)Cn1cnc2c(OCc3ccccc3)ncnc21)c1cccc2ccccc12	-0.8%	.	-6.8%	.
COc1ccc(NC(=O)COC(=O)c2ccc3c(c2)OCCO3)cc1OC	?	.	5.0%	.
c1ccc2oc(-c3ccc4nc[nH]c4c3)nc2c1	-2.5%	-8.7	7.6%	-49.3%
O=C(NOC(=O)c1ccccc1F)c1ccc(OC(F)F)cc1	-5.2%	5.9	6.5%	-12.0%
CCOC(=O)C1=C(C)NC(=O)N(C(C)=O)C1c1ccc(Cl)cc1 (stereo not drawn)	1.6%	0.6	12.3%	0.1%
COCCN(CCOC)S(=O)(=O)c1ccc(/C(O)=C(\C#N)c2nc3ccccc3[nH]2)cc1	1.0%	-1.0	-18.9%	-28.1%
COc1ccc(OCCNc2cc(Cl)ccc2[N+](=O)[O-])cc1	0.4%	-2.0	-5.0%	-21.7%
O=C(Nc1ccc(S(=O)(=O)Nc2nccs2)cc1)c1ccccc1OC(F)F	-2.0%	.	9.2%	.
O=C(CCCOc1ccc(Cl)cc1)N1CCOCC1	0.7%	-2.9	7.1%	-32.7%
O=C(NCC(c1cccs1)N1CCOCC1)C1CCN(S(=O)(=O)c2ccccc2C(F)(F)F)CC1 (stereo not drawn)	4.9%	.	2.0%	0.1%
Cc1ccc(NCC(=O)N/N=C/c2ccncc2)cc1	0.6%	-2.1	0.5%	-1.4%
Cc1ccc(NC(=O)C2CCCN2S(=O)(=O)c2cccc3cccnc23)cc1F (stereo not drawn)	-2.1%	1.5	1.9%	-24.9%
COc1ccc([N+](=O)[O-])cc1CSc1nnc(NC(C)=O)s1	5.5%	9.0	-5.0%	-3.8%
O=C(Cc1ccccc1)Nc1ccc(NC(=S)NC(=O)c2ccccc2)cc1	-0.3%	.	-2.5%	-0.1%
Cc1nnc(N(C)C(=O)c2cnccn2)s1	6.7%	5.5	-5.1%	-1.0%
CCNS(=O)(=O)c1ccc(NC(=O)Cc2ccc(F)cc2)cc1	-0.5%	2.7	-15.5%	-11.4%
CN(CC(=O)OCC(=O)NC(=O)c1cccn1C)S(=O)(=O)c1ccc(Cl)cc1	-3.0%	0.3	-22.4%	-0.2%

Copied from the list.
In Rango complex inh, `Cc1ccc(NC(=O)C2CCCN2S(=O)(=O)c2cccc3cccnc23)cc1F` (stereo not drawn) has the entry -2.1%
In Rango complex inh, `CCOC(=O)C1=C(C)NC(=O)N(C(C)=O)C1c1ccc(Cl)cc1` (stereo not drawn) has the entry 1.6%

6 entries out of the list, arranged by molar mass, high to low:
SMILES	Rango complex inh	GLA inh pH 4.5	Rango dissoc inh	miR-21 reporter
O=C(NCC(c1cccs1)N1CCOCC1)C1CCN(S(=O)(=O)c2ccccc2C(F)(F)F)CC1 (stereo not drawn)	4.9%	.	2.0%	0.1%
CN(CC(=O)OCC(=O)NC(=O)c1cccn1C)S(=O)(=O)c1ccc(Cl)cc1	-3.0%	0.3	-22.4%	-0.2%
O=C(Cc1ccccc1)Nc1ccc(NC(=S)NC(=O)c2ccccc2)cc1	-0.3%	.	-2.5%	-0.1%
CCNS(=O)(=O)c1ccc(NC(=O)Cc2ccc(F)cc2)cc1	-0.5%	2.7	-15.5%	-11.4%
Cc1ccc(NCC(=O)N/N=C/c2ccncc2)cc1	0.6%	-2.1	0.5%	-1.4%
Cc1nnc(N(C)C(=O)c2cnccn2)s1	6.7%	5.5	-5.1%	-1.0%

Other structures:
SMILES	Rango complex inh	GLA inh pH 4.5	Rango dissoc inh	miR-21 reporter
Cc1ccc(NC(=O)CNC(=O)c2ccc(C)o2)cc1	0.0%	.	-6.0%	-17.5%
Cc1ccc(C(=O)NC(=S)NCC(=O)c2ccccc2)cc1	-1.3%	-9.8	0.4%	-9.9%
COC(=O)c1nn(-c2c(C)n(C)n(-c3ccccc3)c2=O)cc1O	-1.2%	2.7	-7.3%	-8.3%
CNC(=O)COc1ccc(Nc2nnc(-c3ccc(C)c(S(N)(=O)=O)c3)c3ccccc23)cc1	3.2%	.	21.2%	-6.0%
Nc1nonc1OCCN1CCN(c2ccc([N+](=O)[O-])c3cccnc23)CC1	2.2%	-6.5	1.1%	6.4%
Cc1ccc(-c2nnc(C)c(N3CCOCC3)n2)cc1	0.3%	-2.7	-4.7%	-14.3%
CCN(CC)c1ccc([C@H]2[C@@H]3CCCC[C@]3(O)CCN2CC(=O)NCc2ccco2)cc1	-2.0%	8.8	-0.1%	-7.7%
CCCNC(=O)NC(=O)CSc1nc2cc(C(=O)OC)ccc2c(=O)n1-c1ccccc1	-1.7%	3.0	30.5%	-1.0%
CSCCCN1CCC(n2nccc2NC(=O)CCCc2ccccc2)CC1	-1.2%	.	?	-0.6%
O=C(CCCn1c(=O)[nH]c2ccsc2c1=O)N1CCN(Cc2ccc3c(c2)OCO3)CC1	-1.6%	-2.0	-6.0%	-3.7%
CC1=CC(=O)N(c2cccc3c(N4C(=O)C=C(C)C4=O)cccc23)C1=O	0.2%	.	14.0%	.
Cc1ccc(C)c(NS(=O)(=O)c2cc3c4c(c2)CC(=O)N4CCC3)c1	-0.8%	.	12.9%	-1.6%
COc1ccc(N2CCN(C(=O)c3ccc(NS(=O)(=O)c4cccc(F)c4)cc3)CC2)cc1	-2.1%	-0.9	2.0%	-20.8%
COc1ccc(CCN2CCCC(CN(C)Cc3cc(OC)c(OC)c(OC)c3)C2)cc1 (stereo not drawn)	-0.2%	.	4.2%	3.7%
COc1ccc(N(CC(=O)NC2CCCCC2)C(=O)c2ccc(C)s2)cc1OC	3.0%	.	-0.9%	-9.7%
O=C(Nc1cc(=O)[nH]c2ncnn12)c1ccco1	-1.0%	1.4	1.6%	-0.5%
O=c1[nH]c(O)c(/C=C2\C=Nc3ccc(Br)cc32)[nH]1	0.0%	.	-17.2%	-14.5%
Cc1occc1-c1n[nH]c(=S)n1C	-1.6%	1.7	9.3%	4.6%
Cc1ccc(C(=O)NC(Cc2ccc(C(C)(C)C)cc2)C(=O)O)cc1 (stereo not drawn)	-0.2%	.	5.3%	.
O=S(=O)(Nc1ccc(Cl)cn1)c1ccccc1	3.5%	-1.7	-3.4%	2.5%
COC(=O)c1ccccc1NC(=O)NCc1ccncc1	-0.8%	8.4	-8.6%	3.7%
COc1ccc(OCCSc2nc(C)c(Cc3ccccc3)c(=O)[nH]2)cc1	4.1%	7.0[21.1 µM]	6.2%	-3.4%&0.3%
COc1ccc(CN(Cc2cccnc2)S(=O)(=O)c2ccc(-n3cnnn3)c(OC)c2)cc1	-2.1%	.	-16.5%	16.1%
CC#CCOC(=O)c1c(C)nc2sc3c(c2c1N)CCC(O)C3 (stereo not drawn)	-2.7%	-2.1	5.0%	.
COC(=O)[C@@]1(C)[C@H]2C(=O)N(Cc3ccccc3)C(=O)[C@H]2[C@H]2CN(C)C(=NC3CCCCC3)N21	1.9%	.	2.4%	.
CC(C)n1nc(C(=O)Nc2cccc(S(=O)(=O)N3CCOCC3)c2)c2ccccc2c1=O	0.9%	.	-24.5%	.
Cc1sc(NC(=O)CSc2nnc(C)c(=O)[nH]2)c(C#N)c1C	0.0%	5.4	-8.8%	0.8%
CC(=O)Nc1ccc(C(=O)OCc2ccc(Br)cc2)cc1	3.2%	4.3	-0.3%	-16.2%
O=C(OCC(=O)N1CCc2ccccc2C1)c1ccc(O)cc1	-1.4%	.	14.9%	.
COc1cc(C(=O)NCC(=O)OCC(=O)c2ccc[nH]2)cc(OC)c1OC	-1.2%	5.5	9.7%	-0.9%
O=C(CSc1nnc(-c2cccs2)o1)OCc1ccccc1	-2.6%	3.7	4.7%	-2.7%
CCN(CC)S(=O)(=O)c1ccc(C(=O)NCc2ccc3c(c2)cc(C)n3C)cc1	5.7%	-9.9	-19.7%	-5.8%
